From PubChem
Mtb H37Rv: Mycobacterium tuberculosis H37Rv growth inhibition, cell based, confirmatory dose response (AID 1949) | most inactive calls were filed without a number and no value below 0 was filed | inhibition, % at 10 µg/mL; hits with a dose series show IC50 in µg/mL | 1.6% of 100,000 active;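 active = confirmed in a dose series; inconclusive = about 50% or more but not retested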;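 also: bacteria grown 7 days with compound before Alamar blue readout; 0% = untreated bacteria and 100% = reference antibiotic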
The depositor's hits bear a star; i = inactive; ? = inconclusive. An excerpt; the hit share may differ from the screen's.

Compound | Mtb H37Rv
O=C(O)c1cc2nc(-c3ccc4c(c3)OCO4)cc(C(F)(F)F)n2n1 | 7%
C=CCn1c(-c2cccs2)nc2ccccc21 | 1.9µg/mL*
COc1ccccc1NC(=O)c1cnc(SC)nc1 | 4µg/mL*
CCCC1=NN(c2ccccc2)C(=O)C1 | i
COCc1cc(C)nc(SCC(=O)Nc2cccc([N+](=O)[O-])c2)c1C#N | i
O=C(C(c1ccccc1)c1ccccc1)N1CCCCC1 | 1%
CC(C)(C)C1CCc2c(sc3ncn(CC(=O)NCc4ccco4)c(=O)c23)C1 (stereo not given) | i
O=C(CSc1nc2ccccc2o1)Nc1cccc2ccccc12 | 28%
CCOC(=O)c1c(NC(=O)C2CCCCC2)sc(C(N)=O)c1C | i
O=C(CSc1nc2ccccc2[nH]1)Nc1ccccc1I | i
Cc1cccc(N)c1-c1c(C)cccc1N | i
COc1c(Cl)cc(C(=O)Nc2sc3c(c2C#N)CCC(C)C3)cc1Cl (stereo not given) | i

(list continues)
Compound | Mtb H37Rv
COc1cc(NC(=S)NC(=O)C(C)Oc2ccc(Cl)cc2Cl)c(OC)cc1Cl (stereo not given) | i
CCOCc1nnc(NC(=O)Cc2cccs2)s1 | i
O=C(NC(=S)Nc1ccc(CN2CCCCC2)cc1)c1ccc2c(c1)OCO2 | i
COC(=O)C1=C(C)N(C)C(=O)NC1c1cccc(OC)c1OCc1ccccc1 (stereo not given) | i
CCCc1oc(C(=O)O)cc1CN1CCOCC1 | i
O=C(NCCc1ccc(Cl)cc1)C(=O)c1c[nH]c2ccccc12 | i
COc1ccc(Cl)cc1N(CC(=O)Nc1cc(Cl)ccc1C)S(C)(=O)=O | i
COc1cccc(/C=C2\C(=O)NC(=O)N(c3ccc(OCc4ccccc4)cc3)C2=O)c1 | i
O=C(CSCC(=O)Nc1ccc2ccccc2c1)NCc1ccco1 | i
CCOC(=O)c1ccc(NC(=O)/C(=C\c2cccc([N+](=O)[O-])c2)NC(=O)c2ccccc2OC)cc1 | i
O=C(NC(=S)N1CCc2ccccc21)C1CCCC1 | 20%
Cc1cccc(OCCCC(=O)O)c1C | i

Remaining list, next part.
Compound | Mtb H37Rv
C=CCOc1ccccc1CN(C)CCc1ccc(OC)c(OC)c1 | i
CCC(C)c1ccc(NC(=S)Nc2ccc(OC)cc2C)cc1 (stereo not given) | i
Cc1ccc2nsnc2c1NC(=O)CSc1nccn1C | 1%
COc1cc2c(cc1OC)C(c1ccc(SC)cc1)CC(=O)N2 (stereo not given) | 0%
CCc1ccc(N(CC(=O)OC)S(C)(=O)=O)cc1 | i
CCOc1ccccc1N(CC(=O)NC)S(=O)(=O)c1ccc(Cl)cc1 | i
Cc1cc(C)c(S(=O)(=O)N(C)CC(=O)Nc2cc(Cl)cc(Cl)c2)c(C)c1 | i
CC(=O)c1sc(N2CCCc3ccccc32)nc1C | 1%
COc1ccc(C)cc1NC(=O)NCCc1ccc(F)cc1 | i
O=C(Nc1nnc(-c2ccccc2Cl)o1)c1cccnc1 | ?
CCCc1cc(=O)[nH]c(SCc2c(Cl)ccc(Cl)c2Cl)n1 | i
CCOc1ccccc1C1CC(c2ccc(Br)cc2)Nc2ncnn21 (stereo not given) | 49%

More records follow:
Compound | Mtb H37Rv
CC(=O)Oc1ccccc1C(=O)Nc1ccc2c(c1)OCO2 | i
COC(=O)c1c(NC(=O)c2cc(OC)cc(OC)c2)sc(C)c1C | i
COc1ccc(NC(=O)COc2cc(C)c(Br)c(C)c2)c([N+](=O)[O-])c1 | i
CCOC(=O)c1sc(NC(=O)Cn2cnc3sc(C)c(C)c3c2=O)c(C(=O)OCC)c1C | i
O=C(COc1ccc(C(F)(F)F)cc1[N+](=O)[O-])Nc1cccc(Br)c1 | i
CCOCCc1nnc(NC(=O)c2ccccc2I)s1 | 2%
O=C(c1cccs1)N1CCN(c2ccc(Cl)cc2)CC1 | i
O=C(Oc1ccc(O)cc1)C12CC3CC(CC(C3)C1)C2 | i
O=S(=O)(NC1CCCCC1)c1ccc(Cl)s1 | i
Cc1cc(C)cc(OCCNC(=O)c2cccc(F)c2)c1 | 3%
O=C(c1cc(-c2ccc(Cl)c(Cl)c2)nc2ccccc12)N1CCN(c2ccccc2F)CC1 | 5%
Cc1ccc(-c2cc(C(=O)N3CCCCC3)c3ccccc3n2)cc1 | i

Other records follow.
Compound | Mtb H37Rv
COCCNCCCCOc1ccc(OCc2ccccc2)cc1 | i
COc1ccc2nc(N3C(=O)CC(Cc4cc(C)cc(C)c4)C3=O)sc2c1 (stereo not given) | 2%
Cc1ccc2oc(-c3ccc(Cl)c(NC(=S)NC(=O)c4ccc(Cl)cc4Cl)c3)nc2c1 | i
CSc1cccc(NC(=O)CN2C(=O)c3cccc4cccc2c34)c1 | 2%
O=C(NCc1ccccn1)Nc1ccccc1Cl | i
O=C(NNC(=S)Nc1ccc2c(c1)OCO2)c1ccc(COc2ccc3c(c2)CCC3)o1 | i
O=C(COc1cccc2ccccc12)NC1CCCCC1 | 5%
O=C(NCc1ccc(F)cc1)c1ccc2nc[nH]c2c1 | i
CC(C)Oc1ccc(C(=O)Nc2ccc(N(C)C)cc2)cc1 | 5%
COc1nnc(-c2ccc(N3CCOCC3)c(NC(=O)c3ccc(C)cc3)c2)c2ccccc12 | ?
CCOC(=O)C(Cc1ccccc1)C(=O)O (stereo not given) | i
CCOc1ccc(NC(=O)CN(c2ccccc2CC)S(=O)(=O)c2ccccc2)cc1 | i

More entries:
Compound | Mtb H37Rv
COc1ccc(C(=O)Nc2ccccc2-c2nc3ccccc3s2)cc1OC | i
Cn1c(SCc2nc3ccccc3c(=O)[nH]2)nnc1-c1cc2ccccc2o1 | i
Cc1ccccc1-c1noc(CCC(=O)NCc2cccnc2)n1 | i
Cc1ccc(C(=O)NC(=S)Nc2ccc(S(=O)(=O)NC(C)C)cc2)cc1Br | 3.8µg/mL*
N#CCc1ccc(NC(=O)c2cccnc2)cc1 | i
COc1ccc(NC(=O)c2ccc3c(c2)n(C)c(=O)n3C)cc1 | i
Cc1occc1C(=O)Nc1cccc(NC(=O)c2ccoc2C)c1 | i
O=C(Nc1ccc2c(c1)OCO2)c1sc2cccc(Cl)c2c1Cl | i
COC(=O)c1c(NC(=O)c2cccc(F)c2)sc2c1CCCCCC2 | 0%
Cc1c(Br)c(C(F)(F)F)nn1CC(=O)NCCc1ccccc1 | i
CCC(c1nc2ccccc2c(=O)n1-c1cccnc1)N1C(=O)c2ccccc2C1=O (stereo not given) | i
CCc1cc(I)ccc1NC(=O)c1c(OC)cccc1OC | 14%

More compounds follow.
Compound | Mtb H37Rv
COc1ccc(Cc2nnc(NC(=O)CCc3ccccc3)s2)cc1 | i
Cc1cc(Br)cc(C)c1OCCSc1ncccn1 | 3%
CC(=O)Nc1ccc(S(=O)(=O)N2CCN(CC(O)COc3ccc(C(=O)c4ccccc4)cc3)CC2)cc1 (stereo not given) | i
CCc1cccc(CC)c1NC(=O)Cn1cnc2scc(-c3ccc(Br)cc3)c2c1=O | i
CCc1cc2c(-c3ccccc3)cc(=O)oc2cc1OC(=O)c1cccs1 | 2%
CCOC(=O)c1ccccc1NC(=O)CSCc1c(Cl)cccc1Cl | i
c1ccc(Cc2nnc3sc(-c4ccc5c(c4)OCO5)nn23)cc1 | i
Oc1ccc(-c2csc(Nc3cccc4ccccc34)n2)cc1O | i
CCOC(=O)CCCSc1nc2sc(C)c(C)c2c(=O)[nH]1 | i
COC(=O)c1c(C)oc2ccc(N(C(=O)c3ccccc3)S(=O)(=O)c3cccs3)cc12 | 0%
CCOc1ccc(C(=O)Nc2ccccc2C(C)CC)cc1[N+](=O)[O-] (stereo not given) | 8%
CCN(CC)c1ccc(NC(=O)c2cnn3c(C(F)F)cc(-c4ccc(OC)cc4)nc23)cc1 | 4%

A draw from above in order of formula weight, smallest number first:
Compound | Mtb H37Rv
CCOc1ccc(C(=O)Nc2ccccc2C(C)CC)cc1[N+](=O)[O-] (stereo not given) | 8%
COc1ccc(Cc2nnc(NC(=O)CCc3ccccc3)s2)cc1 | i
COC(=O)c1c(C)oc2ccc(N(C(=O)c3ccccc3)S(=O)(=O)c3cccs3)cc12 | 0%

(cont.)
Compound | Mtb H37Rv
Cc1ccc(CN(CC(=O)NCc2ccc(Cl)cc2)S(=O)(=O)c2ccc(C)cc2)cc1 | 2%
CCOc1ccccc1NC(=O)CSc1nc(-c2ccc(F)cc2)cs1 | ?
Cc1ccc(C(=O)N2CCN(C(=O)N3CCOCC3)CC2)cc1 | i
COc1ccc(C2C3=C(CC(C)(C)CC3=O)Nc3ccccc3N2C(=O)C(C)C)c(OC)c1 (stereo not given) | i
COc1cccc(/C=C2\C(=O)NC(=O)N(c3ccccc3)C2=O)c1 | i
COc1ccccc1NC(=O)CN(C)S(=O)(=O)c1ccc(C)cc1 | i
COc1cc2c(cc1NC(=O)c1ccc3c(c1)OCO3)oc1ccccc12 | i
CC(NC(=O)Cn1c(-c2nonc2N)nc2ccccc21)c1ccccc1 (stereo not given) | i
O=C(NCCc1ccncc1)Nc1ccc(Cl)c(Cl)c1 | i
Cc1ccc(O)c(NC(=O)c2ccc3c(c2)C(=O)N(C(C)(C)C)C3=O)c1 | i
Cc1cc(=O)oc2c(CN3CCCC(C)C3)c(O)ccc12 (stereo not given) | 1%
COc1ccc(C(=O)Nc2ccc(S(=O)(=O)N(C)C3CCCCC3)cc2)c(OC)c1OC | 14%

Other records
Compound | Mtb H37Rv
CCN1CCN(c2c(Cl)cccc2NC(=O)c2ccc(C#N)cc2F)CC1 | 2%
CC(C)Oc1ccccc1NC(=O)CSc1nnnn1C | i
Cc1ccnc(NC(=O)C2CC(=O)N(c3ccc(C)c(C)c3)C2)c1 (stereo not given) | i
COc1ccccc1C(=O)N1CC2(C)CC1CC(C)(C)C2 (stereo not given) | i
CCc1ccc(NC(=O)C(=O)NCc2ccccn2)cc1 | i
Cc1cc(Cl)ccc1N(CC(=O)NCCSCc1c(F)cccc1Cl)S(C)(=O)=O | 1%
O=C(CCc1ccccc1)Nc1nnc(SCC(=O)Nc2ccccc2F)s1 | i
O=C(COc1ccccc1Br)Nc1ccc2c(c1)OCCO2 | 0%
O=C(NC(=S)N1CCN(C(c2ccccc2)c2ccccc2)CC1)c1ccccc1 | 5%
Cc1cc(N2CCCC2)c(F)cc1C=O | 2%
O=[N+]([O-])c1cc(C(F)(F)F)ccc1NCCc1c[nH]c2ccccc12 | ?
CCOc1cc(S(=O)(=O)NCc2ccco2)ccc1F | i

Rewritten as labelled records: entries from further up.
> c1ccc(Cc2nnc3sc(-c4ccc5c(c4)OCO5)nn23)cc1
- Mtb H37Rv = i
> Oc1ccc(-c2csc(Nc3cccc4ccccc34)n2)cc1O
- Mtb H37Rv = i
> CCOC(=O)CCCSc1nc2sc(C)c(C)c2c(=O)[nH]1
- Mtb H37Rv = i
> COC(=O)c1c(C)oc2ccc(N(C(=O)c3ccccc3)S(=O)(=O)c3cccs3)cc12
- Mtb H37Rv = 0%

Additional structures:
Compound | Mtb H37Rv
COCCNC(=O)c1cc(I)c(OC)c(OC)c1 | i
COc1cc(OC)c(C2NC(=S)NC(C)=C2C(=O)N(C)C)cc1Br (stereo not given) | i
CCOc1cc(CNC2CN3CCC2CC3)ccc1OCc1ccccc1 (stereo not given) | i
CCN(CC)C(=O)C1=C(C)NC(=S)NC1c1ccc(OC)cc1OC (stereo not given) | i
Cc1c(Cl)cccc1NC(=S)NCc1ccc(F)cc1 | i
CCOC(=O)c1ccc(NC(=O)CSc2nnc(-c3ccncc3)n2-c2ccccc2)cc1 | i
O=C(CN1CCCCC1)N1CCN(c2nnc(-c3ccccc3)c3ccccc23)CC1 | 3%
O=C(Nc1ccc([N+](=O)[O-])cn1)c1ccccc1F | 2%
Cc1ccc(NC(=O)CSc2ccc(F)cc2)cc1 | 12µg/mL*
Cc1ccc(C(=O)O)cc1NC(=S)NC(=O)c1ccc(Cl)cc1Cl | 7%
CN(Cc1ccccc1)S(=O)(=O)c1ccc(NS(C)(=O)=O)cc1 | 0%
O=C(Nc1nc(-c2ccc(Br)cc2)cs1)c1sc2ccccc2c1Cl | i

Remaining list, next part
Compound | Mtb H37Rv
Cc1cc(C)cc(NC(=S)NCC(C)C)c1 | i
COc1ccc(C(=O)CCC(=O)Nc2ccc(Cl)c(Cl)c2)c(OC)c1 | i
O=C(Nc1ccc2c(c1)nc1n2CCN(Cc2ccccc2)C1)c1ccc([N+](=O)[O-])cc1 | i
COc1cc(NC(=S)NCCc2ccc(Cl)cc2)c(OC)cc1Cl | 8%
CCOC(=O)COc1ccc(S(=O)(=O)N2CCN(c3ccc(F)cc3)CC2)cc1 | ?
Cn1nc(-c2ccc(C(=O)NC3CCCCC3)cc2)c2ccccc2c1=O | 2%
COc1ccc(N(C(C)C(=O)NC2CCCCCC2)S(C)(=O)=O)cc1 (stereo not given) | i
CC1CCCCN1C(=O)c1cc(I)ccc1NC(=O)c1cccnc1 (stereo not given) | i
CCc1c(C)sc(NC(=O)COc2ccc(Br)cc2)c1C#N | 1%
O=C(O)Cn1cnc2sc3c(c2c1=O)CCCC3 | i
CCOc1ccc(NC(=O)CSc2nnc(-c3ccccc3Cl)o2)cc1 | 3.4µg/mL*
O=C(CSc1nc(NC(=O)c2ccccc2)c2c3c(sc2n1)CCC3)Nc1nccs1 | 17%

Further structures follow:
Compound | Mtb H37Rv
Cc1ccc(S(=O)(=O)N(C)CCCC(=O)n2nc(C)cc2C)cc1 | i
C=CCn1c(SCC(=O)Nc2cc(C(F)(F)F)ccc2Cl)nnc1-c1cccc(C)c1 | 2%
CCN(CC)c1ccc(NC(=O)c2cc(Cl)c(OC)c(Cl)c2)c(C)c1 | i
Cc1ccccc1OCC(=O)Nc1c(C)n[nH]c1C | i
COc1ccc(NC(=S)N2CCN(c3cc(Cl)ccc3C)CC2)cc1 | i
